PD-1 reversal = activators reversing PD-1 mediated T-cell inhibition; 29,000 tested, under 10 active; primary human CD4 T cells, PD-L1 beads, CellTiter-Glo 96 h; activation, % (no concentration beside the values);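 active = replicate mean of 50% or more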;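 also: 0% = median vehicle wells and 100% = positive control; 100 nL library stock added to about 50 µL; numbers are from one replicate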
Hedgehog inh = Sonic Hedgehog pathway inhibition; Shh-LIGHT2 Gli-luciferase reporter, 30 h; inhibition, % (no concentration beside the values); 2.1% of 22,000 active; AID 2313;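 active = replicate mean of 65% or more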;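 also: pathway switched on by Shh-conditioned medium diluted 1 in 25 in low serum; 100 nL library stock added to about 40 µL; 0% = median of neutral wells and 100% = positive control level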
MITF inhib = inhibitors of MITF; AID 2240; 0.28% of 37,000 active; TRPM1 promoter luciferase, luminescence, 24 h; inhibition, % (no concentration beside the values);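 active = most replicates at 85% or more, or half of them and the mean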;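 also: human melanocyte line stably carrying TRPM1 promoter luciferase reporter; 0% = vehicle wells and 100% = a positive control; the first replicate is given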
YB-1 expression = YB-1 expression inhibition | U2OS, qRT-PCR YB-1 vs CDIP delta delta Cp, 16 h; hits give high values; zero = DMSO, each unit about twofold | 0.37% of 30,000 active | delta delta Cp (YB-1 minus CDIP) (test concentration not listed);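 active = delta delta Cp rounded down to an integer at or above 3, about 3 SD of DMSO wells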;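 also: higher means less YB-1 transcript or more CDIP transcript relative to DMSO; stock transfer was 100 nL into about 100 µL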
Numbers without * were called inactive; . = no result given.

SMILES	PD-1 reversal	Hedgehog inh	MITF inhib	YB-1 expression
C[C@@H]1CN([C@@H](C)CO)C(=O)c2cc(NC(=O)c3ccncc3)ccc2O[C@@H]1CN(C)C(=O)Nc1ccc(C(F)(F)F)cc1	0.2	-20.9	-0.1	0.115
C[C@H]1CN([C@@H](C)CO)C(=O)c2cccc(NS(=O)(=O)c3ccc(Cl)cc3)c2O[C@@H]1CN(C)CC1CC1	0.9	-7.3	-3.4	0.241
CC(=O)Nc1ccc(NC(=O)CN(c2cccc(C(F)(F)F)c2)S(C)(=O)=O)cc1	3.0	.	3.8	.
N#CC1=C(N)S[C@H](C(=O)c2ccccc2)[C@H]1c1ccc(Br)c(F)c1	0.0	.	38.3	-0.318
C[C@@H]1CCCCO[C@@H](CN(C)Cc2ccc(Cl)c(Cl)c2)[C@@H](C)CN([C@H](C)CO)C(=O)c2cc(NS(=O)(=O)c3ccccc3)ccc2O1	-6.7	-14.7	46.1	-0.000557
NCCNS(=O)(=O)c1cccc2cnccc12	3.5	-25.3	0.5	-0.00804
Cc1cc(C(=O)Nc2cccc3c2O[C@@H](CN(C)C(=O)Nc2cccc4ccccc24)[C@H](C)CN([C@@H](C)CO)C3=O)n(C)n1	0.2	21.3	3.0	-0.487
O=C(c1cccs1)c1coc2ccc(O)c(CN(CCO)CCO)c12	0.2	6.8	-6.0	0.164
C[C@H]1CN([C@@H](C)CO)C(=O)Cc2cc(NS(=O)(=O)c3cccs3)ccc2O[C@H]1CN(C)C(=O)Nc1cccc2ccccc12	.	7.5	-5.1	0.159
C[C@@H]1CN([C@@H](C)CO)C(=O)c2cccc(NC(=O)CCCCCC(=O)Nc3ccccc3N)c2O[C@H]1CN(C)CC1CC1	0.4	.	13.4	0.0872
CN(C)c1nc(-c2ccc(Cl)cc2)[nH]c(=O)n1	-0.2	-9.9	-22.5	0.222
Cc1ccc(S(=O)(=O)N(C)CC(=O)Nc2ccccc2Sc2ccccc2)cc1	-0.3	.	12.1	.
Cc1cccc(C)c1OCC(=O)Nc1sc(C)c(C)c1C(N)=O	-2.9	.	-8.4	.
Cc1onc(-c2ccccc2)c1C(=O)Nc1cccc2nsnc12	-4.8	.	-14.7	.
C[C@@H]1CN([C@H](C)CO)C(=O)c2cccc(NC(=O)C3CCOCC3)c2O[C@H]1CN(C)Cc1ccccc1	-3.0	21.9	17.4	0.0146
COc1cc([C@H]2OC[C@H]3[C@@H]2CO[C@@H]3c2ccc(O)c(OC)c2)ccc1O	1.6	-25.7	0.5	0.742
C[C@H]1CN([C@@H](C)CO)C(=O)c2cccc(NC(=O)C3CCOCC3)c2O[C@H]1CN(C)C(=O)Nc1cccc2ccccc12	0.5	-9.8	-7.3	-0.193
CCCNC(=O)[C@H]1O[C@@H]1C(=O)N[C@H](C(=O)N1CCC[C@H]1C(=O)OC)C(C)CC (stereo not given in full)	-48.6	22.7	69.7	0.442
COC(=O)c1ccccc1NC(=O)CN(c1ccc(C)c(Cl)c1)S(C)(=O)=O	0.1	.	8.0	.
C[C@H]1CN([C@@H](C)CO)C(=O)Cc2cc(NS(=O)(=O)c3cn(C)cn3)ccc2O[C@H]1CN(C)C(=O)Nc1ccc(F)cc1	1.1	6.7	-0.6	0.438
Cn1c(SCC(=O)Nc2ccc(C(=O)O)cc2)nnc1-c1ccc(Cl)cc1Cl	-0.6	.	0.1	.
CC1=C(CO)C(=O)OC([C@@H](C)[C@H]2CCC3C4CC=C5C[C@@H](O[C@@H]6O[C@H](CO)[C@@H](O)[C@H](O)[C@H]6O)C[C@H](O)[C@]5(C)C4CC[C@@]32C)C1 (stereo not given in full)	-0.4	17.7	-3.3	0.0462
Cc1ccc(NC(N)=O)cc1	0.8	-16.6	4.4	0.382
C[C@H]1CN([C@@H](C)CO)C(=O)Cc2cc(NS(=O)(=O)c3ccc(F)cc3)ccc2O[C@H]1CN(C)Cc1ccccc1	-0.2	20.5	5.3	-0.338
C[C@H]1CN([C@@H](C)CO)C(=O)Cc2cc(NS(=O)(=O)c3ccccc3)ccc2O[C@@H]1CN(C)C(=O)Nc1ccc(C(F)(F)F)cc1	.	.	-6.1	-0.328
SMILES	PD-1 reversal	Hedgehog inh	MITF inhib	YB-1 expression
COc1cc(O)c(C(=O)c2c(O)cc(C)cc2O)c(C(=O)O)c1	0.1	-8.0	3.2	-0.04
O=C(Cn1cnc([N+](=O)[O-])n1)Nc1ccc(Cl)cc1C(F)(F)F	-1.3	.	4.4	.
C[C@H](CO)N1C[C@H](C)[C@H](CN(C)C(=O)Nc2ccc(C(F)(F)F)cc2)Oc2c(NC(=O)Nc3cccc4ccccc34)cccc2C1=O	-5.8	-33.9	34.8	0.316
C[C@H](CO)N1C[C@H](C)[C@@H](CN(C)S(=O)(=O)c2ccc(F)cc2)Oc2ccc(NS(=O)(=O)c3ccc(F)cc3)cc2C1=O	0.7	.	-2.4	-0.489
C[C@@H]1CN([C@H](C)CO)C(=O)Cc2cc(NS(=O)(=O)c3ccc(F)cc3)ccc2O[C@@H]1CN(C)Cc1ccc(Cl)c(Cl)c1	-0.1	.	-19.1	0.0564
O=C(CSc1nc2ccccc2c(=O)[nH]1)Nc1ccc2ccccc2c1	-2.8	.	4.0	.
C[C@@H]1CN([C@@H](C)CO)C(=O)Cc2cc(NC(=O)Cc3cn(C)c4ccccc34)ccc2O[C@@H]1CN(C)S(=O)(=O)c1ccc(Cl)cc1	-1.5	.	47.5	-0.0159
CC(=O)c1cccc(NC(=S)N2CCN(CCN3C(=O)c4cccc5cccc(c45)C3=O)CC2)c1	-0.8	.	-17.6	.
Cc1ccc(S(=O)(=O)c2ccc(C)cc2)cc1	-0.4	6.7	5.3	0.262
C[C@@H]1CN([C@@H](C)CO)C(=O)Cc2cc(NC(=O)Cc3ccccc3)ccc2O[C@@H]1CN(C)C(=O)Nc1ccc2c(c1)OCO2	-1.2	10.0	-0.4	-1.03
C[C@@H]1CN([C@@H](C)CO)C(=O)c2cccc(NS(=O)(=O)c3cn(C)cn3)c2O[C@H]1CN(C)Cc1ccc(C(=O)O)cc1	1.2	-29.8	-0.2	0.419
Cc1ccc(S(=O)(=O)Nc2ccc3c(c2)C(=O)N([C@H](C)CO)C[C@@H](C)[C@@H](CN(C)C(=O)Nc2cccc4ccccc24)O3)cc1	-1.5	-16.0	10.7	0.135
COc1ccc(-n2c(SCC(=O)Nc3ccc(Cl)cc3C)nnc2-c2ccccc2F)cc1	-2.3	.	12.5	.
COc1ccc(CN(C)C[C@@H]2Oc3c(NS(C)(=O)=O)cccc3C(=O)N([C@@H](C)CO)C[C@H]2C)cc1	1.2	11.3	-7.3	-0.0316
COc1ccc(NC(=O)N(C)C[C@H]2Oc3ccc(NS(=O)(=O)c4cn(C)cn4)cc3CC(=O)N([C@@H](C)CO)C[C@H]2C)cc1	2.6	-7.8	-8.8	-0.142
Cc1noc(C)c1S(=O)(=O)Nc1ccc2c(c1)CC(=O)N([C@H](C)CO)C[C@@H](C)[C@H](CN(C)Cc1ccc(-c3ccccc3)cc1)O2	.	4.5	-2.5	-0.154
C[C@@H]1CN([C@@H](C)CO)C(=O)c2cc(NC(=O)CCCCCC(=O)Nc3ccccc3N)ccc2O[C@@H]1CN(C)C(=O)Nc1ccc(F)cc1	-1.1	.	-8.1	-0.156
Cc1nc2nc[nH]n2c(=O)c1NS(=O)(=O)c1cccs1	1.7	.	-19.6	.
O=C(Nc1sccc1C(=O)N1CCOCC1)c1cc2ccccc2oc1=O	-0.2	.	-6.4	.
O=c1n(Cc2ccccc2)c2ccccc2n1Cc1ccccc1	-0.3	96.1*	7.6	0.161
COc1cc([N+](=O)[O-])cc(CN2CCN(CCO)CC2)c1O	2.6	.	-18.3	.
NS(=O)(=O)c1ccc(NC(=S)Nc2nn(Cc3ccc(Cl)cc3Cl)cc2Cl)cc1	-2.6	.	46.0	.
O=C1CSC(c2ccccc2)N1CCc1ccccc1 (stereo not given)	-0.7	9.1	7.0	-0.534
C[C@H]1CN([C@@H](C)CO)C(=O)c2cc(NC(=O)Nc3ccc(C(F)(F)F)cc3)ccc2O[C@H]1CN(C)Cc1ccc(C(F)(F)F)cc1	-0.5	-23.3	32.8	-0.382
C[C@H](CO)N1C[C@H](C)[C@@H](CN(C)Cc2ccc3c(c2)OCO3)Oc2ccc(NC(=O)C3CCCCC3)cc2C1=O	-0.6	.	-5.7	-0.0565

Structures listed so far containing an aryl thioether with sulfur outside any ring (four):
SMILES	PD-1 reversal	Hedgehog inh	MITF inhib	YB-1 expression
Cc1ccc(S(=O)(=O)N(C)CC(=O)Nc2ccccc2Sc2ccccc2)cc1	-0.3	.	12.1	.
Cn1c(SCC(=O)Nc2ccc(C(=O)O)cc2)nnc1-c1ccc(Cl)cc1Cl	-0.6	.	0.1	.
O=C(CSc1nc2ccccc2c(=O)[nH]1)Nc1ccc2ccccc2c1	-2.8	.	4.0	.
COc1ccc(-n2c(SCC(=O)Nc3ccc(Cl)cc3C)nnc2-c2ccccc2F)cc1	-2.3	.	12.5	.

Next structures
SMILES	PD-1 reversal	Hedgehog inh	MITF inhib	YB-1 expression
Cc1cccc(OCC(=O)Nc2c[nH]c(=O)[nH]c2=O)c1C	0.8	.	-23.9	.
Cc1n[nH]c(C)c1C(=O)CC1(O)C(=O)N(Cc2ccccc2)c2ccccc21 (stereo not given)	2.2	.	11.9	.
COc1cc(OC)cc(-c2nnc(SCC(=O)Nc3ccc(Cl)cc3)n2-c2ccc(F)cc2)c1	-0.3	.	25.0	.
CNC[C@H]1Oc2ccc(NC(=O)CCN3CCOCC3)cc2CC(=O)N([C@@H](C)CO)C[C@@H]1C	0.9	15.6	-9.6	0.299
COc1ccc(NC(=O)Nc2ccc3c(c2)C(=O)N([C@@H](C)CO)C[C@H](C)[C@@H](CN(C)C(=O)Nc2ccc4c(c2)OCO4)O3)cc1	1.7	1.4	-1.0	0.14
C[C@@H]1CN([C@@H](C)CO)C(=O)c2cccc(NS(C)(=O)=O)c2O[C@H]1CN(C)Cc1ccc(C(F)(F)F)cc1	0.6	-8.7	0.0	-0.399
O=C(CSc1ncn[nH]1)c1ccc2c(c1)OCCO2	-0.4	.	-55.2	.
O=C1C(C=NC(CO)(CO)CO)=C(O)c2ccccc21	0.5	-19.0	-0.1	0.105
CC(C)NC(=O)Nc1ccc2c(c1)C(=O)N([C@H](C)CO)C[C@H](C)[C@@H](CN(C)Cc1ccc(C(=O)O)cc1)O2	1.1	-35.6	6.2	0.354
Cc1ccc(-c2nnc(N3CCN(C(=O)CSc4nc5ccccc5o4)CC3)c3ccccc23)cc1	-0.1	.	36.9	.
Cc1ccc(Oc2ccc(C)c(C)c2)cc1C	-1.3	.	-29.6	0.555
COc1ccc(-c2nc3ccccc3c(=O)n2CCCN2CCOCC2)cc1	-0.3	.	-17.1	.
C[C@@H]1CN([C@H](C)CO)C(=O)c2cc(NC(=O)Cn3cnnn3)ccc2O[C@H]1CN(C)Cc1ccc(C(=O)O)cc1	0.3	.	3.6	0.142
O=S(=O)(c1ccc(-c2ccccn2)s1)N1CCCCC1	-0.2	-6.0	-1.0	-0.118
C[C@H]1CN([C@@H](C)CO)C(=O)c2cccc(NC(=O)Nc3ccc4c(c3)OCO4)c2O[C@H]1CN(C)C(=O)Nc1cccc2ccccc12	.	-69.8	-12.2	-0.344
C[C@@H]1CN([C@@H](C)CO)C(=O)c2cccc(NC(=O)Nc3ccc(F)cc3)c2O[C@H]1CN(C)Cc1ccc(C(=O)O)cc1	.	-43.9	-3.6	0.622
C[C@@H]1CN([C@@H](C)CO)C(=O)c2cc(N(C)C)ccc2O[C@@H]1CN(C)C(=O)Nc1ccc2c(c1)OCO2	0.8	-30.3	-12.0	-0.157
CCc1cccc(C)c1NC(=O)CSc1nnc(-c2ccc(Cl)cc2Cl)n1C	1.1	.	17.2	.
N=c1ncn(Cc2ccccc2)c2nc(SCC(=O)O)[nH]c12	2.6	.	-32.4	.
CNC[C@H]1Oc2ccc(NC(=O)C3CCCCC3)cc2CC(=O)N([C@@H](C)CO)C[C@@H]1C	0.3	39.6	-1.9	1.05
COCC1OC(OC(C)(C)C2CCC3(C)C=C(C4CCC5C4(C)CC(O)C4OC(C(C)(C)OC6OC(CO)C(O)C(O)C6NC(C)=O)CCC45C)CCC3O2)C(NC(C)=O)C(O)C1O (stereo not given)	1.5	-0.1	-1.5	0.0355
CC12CCC(C(=O)O)(c3nc4ccc5ncccc5c4nc31)C2(C)C (stereo not given)	0.8	5.9	2.6	0.123
C[C@H](CO)N1C[C@H](C)[C@H](CN(C)S(=O)(=O)c2ccc(Cl)cc2)Oc2c(NC(=O)CCCCCC(=O)Nc3ccccc3N)cccc2C1=O	0.4	.	13.6	-0.157
C[C@@H]1CN([C@H](C)CO)C(=O)c2cccc(NC(=O)NC3CCCCC3)c2O[C@H]1CN(C)Cc1ccc(C(F)(F)F)cc1	-4.5	15.7	26.7	-0.14
C[C@@H]1CN([C@H](C)CO)C(=O)c2cccc(NC(=O)Nc3ccc4c(c3)OCO4)c2O[C@H]1CN(C)Cc1ccncc1	-1.0	23.6	9.0	0.0564
COc1ccc(NC(=O)N(C)C[C@H]2Oc3ccc(NC(=O)Cc4ccccc4)cc3C(=O)N([C@@H](C)CO)C[C@H]2C)cc1	-0.8	.	-7.3	0.124
C[C@H]1CN([C@@H](C)CO)C(=O)c2cc(NC(=O)Nc3ccccc3)ccc2O[C@@H]1CN(C)S(=O)(=O)c1cn(C)cn1	0.9	-21.0	3.4	0.281

An excerpt; rates above refer to the full screens.
